PABP polyA inh = blocks human PABP binding to poly(A) RNA | P11940 | AID 2014 | actives 1% (n = 290,000) | fluorescence polarization | inhibition, % at 35 µM;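 active = 50% or more with normal probe brightness, or confirmed in later tests; inconclusive = above 50% with abnormal brightness, or retests that disagree; inactive = below 50% or failed in later tests; about a fifth of its hits are not listed in these tables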;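 also: calls also rest on retests at 20 µM and on dose response follow-up; controls were probe without protein and protein plus probe with vehicle; some compounds called inactive have numbers as strong as hits; many hits fall short of the cut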
Target sequence (P11940 whole entry, looked up): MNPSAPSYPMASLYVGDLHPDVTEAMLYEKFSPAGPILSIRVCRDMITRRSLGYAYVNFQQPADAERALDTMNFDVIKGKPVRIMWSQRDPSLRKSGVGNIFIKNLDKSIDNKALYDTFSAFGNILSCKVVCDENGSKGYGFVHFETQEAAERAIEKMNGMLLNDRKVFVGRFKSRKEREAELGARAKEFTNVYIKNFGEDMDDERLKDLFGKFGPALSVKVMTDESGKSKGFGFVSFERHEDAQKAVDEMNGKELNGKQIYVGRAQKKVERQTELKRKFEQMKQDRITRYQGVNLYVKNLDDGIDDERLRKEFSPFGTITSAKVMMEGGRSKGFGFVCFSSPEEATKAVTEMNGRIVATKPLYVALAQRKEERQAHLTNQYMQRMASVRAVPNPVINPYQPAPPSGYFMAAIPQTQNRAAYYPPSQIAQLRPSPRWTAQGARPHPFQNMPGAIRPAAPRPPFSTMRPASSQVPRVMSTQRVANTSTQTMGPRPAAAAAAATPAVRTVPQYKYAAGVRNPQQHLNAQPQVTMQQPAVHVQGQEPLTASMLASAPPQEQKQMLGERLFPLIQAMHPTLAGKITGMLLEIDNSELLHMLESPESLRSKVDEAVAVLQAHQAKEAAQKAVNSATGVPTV
Rce1 inhib = yeast Ras-converting enzyme inhibition; Q03530; yeast membranes, quenched prenylated peptide cleavage fluorescence; calls only; actives 0.27% (n = 290,000); AID 2563;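 active = fall in fluorescence gain of 50% or more versus controls, with final raw signal at or below 3038400; inconclusive = same 50% fall but final raw signal above 3038400; inactive = fall in fluorescence gain under 50%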;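 also: plate controls were neutral control wells for no effect and wells lacking membranes for full effect; tested at 10 µM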
MT1-MMP act inh = blocks activation of human MT1-MMP. GFP/RFP ratio change, % at 20 µM. HT1080 RFP-PRO-GFP cells, GFP/RFP ratio fluorescence, overnight; percent of plate control window, DMSO zero. actives 0.061% (n = 360,000). P50281;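 active = GFP/RFP ratio change of at least 30% with cell ATP level not reduced by more than half and red fluorescence within 50% of control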; also: strong numbers were not always called active
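Assay system – RFP-PRO-GFP reporter HT1080 cells · Compound dosing – single dose of 20 µM compound, 1% DMSO final · Incubation – overnight compound exposure at 37 °C · Measure – GFP/RFP fluorescence ratio · Benchmarks – DMSO wells and RFP-L50D-GFP cells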
Yeast UUG start = yeast start codon fidelity modulation; S. cerevisiae UUG-firefly luciferase reporter, luminescence/redox ratio; activity score, % at 18.7 µM; actives 0.13% (n = 350,000); AID 602363;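 active = replicate mean at a twofold rise or more, about +100% in these data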;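 also: firefly luciferase made from a UUG start codon reports start codon fidelity; reporter light over untreated wells divided by growth signal over untreated wells; some hits fall short of that in this replicate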
CSC inhib = cancer stem cell inhibition; cancer stem cell-like cells viability, luminescence; inhibition, % at 7.5 µM; actives 1.1% (n = 300,000); AID 2717;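 active = mean at 75% or more and at least half the replicates too; inconclusive = mean and replicates disagree; tested in HMLE shEcad cells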;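 also: 0% = median of negative and 100% = median of positive control wells; the first replicate is given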
HIV Env fusion = blocks HIV Env-driven cell-cell fusion. HeLa-JRFL Env/CEM21 cell fusion, luciferase. inhibition, % at 12.3 µM. actives 1.1% (n = 360,000). AID 651610;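 active = mean replicate inhibition score of at least 50 and every replicate individually at or above 50; inconclusive = only one of the two criteria met; inactive = mean below 50 and not all replicates reaching 50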;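 also: 0% = plate neutral controls and 100% = maraviroc near 300 nM; one replicate is shown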
eIF4H inh = inhibitors of RNA binding by human eIF4H; eIF4H fluorescence polarization binding assay; Q15056; actives 0.94% (n = 290,000); inhibition, % at 35 µM;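 active = 50% or more with normal probe brightness, or confirmed in later tests; inconclusive = above 50% with abnormal brightness, or retests that disagree; inactive = below 50% or failed in later tests; about a fifth of its hits are not listed in these tables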;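 also: calls also rest on retests at 20 µM and on dose response follow-up; 0% = protein and probe with vehicle and 100% = probe without protein; strong numbers were not always called active; many hits fall short of the cut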
eIF4H inh retest = recorded beside eIF4H inh, whose call it bears; inhibition, %; compound at 20 µM; confirmation average;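 mean of two retest wells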
PABP polyA inh retest = recorded beside PABP polyA inh, whose call it bears; inhibition, %; compound at 20 µM; confirmation repeats;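 mean of two retest wells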
MT1-MMP act inh RFP = recorded beside MT1-MMP act inh, whose call it bears; RFP signal change, %; measured here: RFP expression control read;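 0 = vehicle wells; hits needed this value within 50% of zero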
* marks the source's active call; other numbers are inactive results; i = inactive; u = inconclusive; x = no result given; & = joins results of further samples; [ ] = another dose, or the depositor's remark.

SMILES	PABP polyA inh	Rce1 inhib	MT1-MMP act inh	MT1-MMP act inh RFP	Yeast UUG start	CSC inhib	HIV Env fusion	eIF4H inh	others
COc1ccc(C(=O)N(Cc2ccco2)C(C(=O)NC2CCCC2)c2ccc(O)cc2)cc1OC (stereo not drawn)	-2	i	3	4	x	-5	-49	2
O=CN1Cc2[nH]c3ccccc3c2N(c2ccc(Cl)cc2)C1=O	39	i	-5	8	2	1	15	13
O=C(NCc1cccnc1)C1c2ccccc2C(=O)N1C1CCCCCCC1 (stereo not drawn)	1	i	3	3	-19	x	x	-10
Cc1cc(C)nc(SCNC(=O)c2ccccc2)n1	-2	i	6	0	-4	1	-66	3
Cc1cc(C(=O)O)c(CSc2ncn[nH]2)o1	21	i	-1	5	-16	-7	1	-3
COc1cccc(C(=O)OCCCN(C)C)c1	5	i	1	3	x	x	-7	-3
CCS(=O)(=O)N1N=C(c2cccc(NS(C)(=O)=O)c2)CC1c1ccc(C)cc1 (stereo not drawn)	0	i	-33	-2	x	-43	-74	24
Cc1cc(=O)n2ncnc2n1COCCO	-5	i	-5	-2	-18	3	x	-16
CCN1C(=O)c2ccc(C(=O)Nc3cccc(C(=O)O)c3)cc2C1=O	-1	i	0	2	x	1	14	-1
CC(=O)Nc1ccc(S(=O)(=O)N2CCCC2C(=O)O)cc1 (stereo not drawn)	11	i	3	6	-5	-9	x	-11
CCOC(=O)Cc1cc(=O)n2[nH]c(C)c(-c3ccccc3)c2n1	2	i	25	15	-18	-15	-48	30
CC(C)CCN1C(=O)c2ccc(C(=O)OCC(=O)N(CC(C)C)C3CCS(=O)(=O)C3)cc2C1=O (stereo not drawn)	x	x	-4	-1	25	-34	x	x
O=c1sc2ccccc2n1CCOc1ccccc1	8	i	-5	2	-13	3	-99	-8
CC(NCc1ccc([N+](=O)[O-])cc1)C1COc2ccccc2O1 (stereo not drawn)	-8	i	4	1	-16	4	-8	-9
O=C(c1cc(Cl)ccc1Cl)N1CCc2ccccc21	-6	x	-1	2	-18	9	6	-3
CC(C)(C)NC(=O)C(OC(=O)Cn1nnc(-c2ccc(F)cc2)n1)c1ccncc1 (stereo not drawn)	-8	i	-5	2	-13	x	x	12
CN(C)CCCNC(=O)C1(O)c2cc(Br)ccc2NC(=O)N1c1ccc(Cl)cc1 (stereo not drawn)	-1	i	2	1	4	-9	3	-1
C[C@@H]1CN([C@@H](C)CO)C(=O)c2c(c3ccccc3n2C)-c2ccccc2CO[C@H]1CN(C)C(=O)[C@H](C)c1ccccc1	x	x	-4	-8	-2	x	-52	x
CCOC(=O)C(CCCOc1ccc(C)cc1)C(=O)OCC	5	i	5	-3	-13	0	x	-3
COCCN(C(=O)Cc1cccs1)C(C(=O)NCc1ccc(OC)cc1)c1ccccc1 (stereo not drawn)	-7	i	2	3	-5	-5	x	-8
CCC(C)Sc1nc2ccccc2n1CC(=O)O (stereo not drawn)	11	i	-3	-2	2	-7	-58	8
O=C(Cn1cnc2ccccc2c1=O)Nc1ccc2c(c1)OCCO2	-2	i	-1	5	-15	-10	-128	-6
CC1CCCC(NC(=O)COC(=O)c2ccc3ccccc3n2)C1C (stereo not drawn)	23	i	1	6	-12	1	-9	7
COC(=O)C(F)(F)Sc1c(C)[nH]c2ccccc12	-3	x	-1	0	-16	-2	x	4
Cc1cccc(/C=N/NC(=O)Cn2nc(C)cc2C)n1	3.8*	i	2	4	-33	-28	13	102*	eIF4H inh retest=94*;PABP polyA inh retest=74*
CC(C)NC(=O)N(C)C[C@H]1Oc2c(NC(=O)c3ccc(-c4nccs4)cc3)cccc2C(=O)N([C@@H](C)CO)C[C@H]1C	x	x	-1	1	7&10	x	-54[16.7 µM]	x
CC(C)=CCc1c(O)cc(O)c2c(=O)c(O[C@@H]3O[C@@H](C)[C@H](O)[C@@H](O)[C@H]3O)c(-c3ccc(O)cc3)oc12	x	i	-8	-2	-11	6	x	x
CC(=O)c1ccc(C(=O)N2CCC(CO)(Cc3cccc(C(F)(F)F)c3)CC2)cc1	-4	i	-3	-14	x	-10	15	-5
CC1CCCCC1NC(=O)c1cc2c(s1)CS(=O)(=O)C2 (stereo not drawn)	-2	i	-1	-1	-3	-9	x	0
CC(=O)c1ccc(OCCCC(=O)NC(C)c2ccc(S(N)(=O)=O)cc2)cc1 (stereo not drawn)	-4	i	-2	-1	x	-11	-4	-10
O=C(NN=C1c2ccccc2-c2ccccc21)c1ccccn1	0	i	9	-3	-17	-5	x	-10
Cc1cccc(NC(=O)CSc2nnc(CCCCCNC(=O)OC(C)(C)C)o2)c1C	12	x	3	0	8	-12	-483	-11
CC(CN(C)Cc1ccccc1)OC(=O)c1ccccc1F (stereo not drawn)	-6	i	-1	0	-20	-12	0	-5
CCCn1c(SCC(=O)Nc2cccnc2Cl)n[nH]c1=O	x	x	-1	1	-26	-13	-1	x
COc1ccc(-c2ccc(CN3C(C(C)C)C(=O)N(Cc4cn(CC5CCCCC5)nn4)CCS3(=O)=O)cc2)cn1 (stereo not drawn)	x	x	0	2	-16	x	0	x
Cc1ccc(C)c(NC(=O)C2(C)CC3c4ccccc4C2c2ccccc23)c1 (stereo not drawn)	-3	x	-3	1	-11	-3	x	-7
Cc1ccoc1C(=O)Nc1ccc(CC(=O)O)cc1	-2	i	2	2	-26	0	17	-8
Cc1ccc(-c2nc(CSCC(=O)NCCN3CCN(Cc4ccccc4)CC3)c(C)o2)cc1	-2	i	9	-11	-7	-7	-12	0
O=C1/C(=C\c2ccc(O)cc2)SC(=S)N1c1cccnc1	-13	i	-69	5	x	18	-6	-20
CCCC1CCC(C(=O)n2nc(N)c3cc4ccc(OC)cc4nc32)CC1 (stereo not drawn)	2	i	-6	-2	6	-23	12	-2
CCOC(=O)C1=C(C)NC(=O)NC1c1cccnc1 (stereo not drawn)	-2	i	-1	2	-2	5	x	-8
CCO[C@H]1OC(C(=O)N2CCN(Cc3ccccc3)CC2)=C[C@@H](c2ccccc2)[C@@H]1CCCO	-6	i	-1	0	-4	38	13	-5
O=C(CCSc1nnc(-c2ccccc2)o1)N1CCOCC1	6	i	0	4	x	-4	0	4
Cc1[nH][nH]c(=O)c1N=Nc1ccc(Br)c(Cl)c1	x	x	11	0	1	11	-8	x
CC(C)C(=O)N=c1sc2cc(F)cc(F)c2n1C	-5	i	0	1	-21	3	-41	-3
NC(=O)CN(Cc1ccccc1)S(=O)(=O)c1ccc2c(c1)OCCO2	10	i	3	3	8	2	-1	-6
O=C(OC1CCCCC1=O)c1cccc(S(=O)(=O)N2CCCCC2)c1 (stereo not drawn)	x	i	2	-4	-5	12	10	x
CC(C)c1ccccc1-n1c(SCC(=O)N2CCN(c3ccccc3)CC2)nnc1-c1cccnc1	-8	i	-2	-3	-16	-13	x	1
Cc1ccccc1NC(=O)CN1C(=S)NC(C)(C)CC1C (stereo not drawn)	5	i	2	7	-24	x	x	-6
COC(=O)CSc1nc2cc3c(cc2cc1C#N)OCO3	30	i	-6	0	x	-8	x	6
COC(=O)c1ccc(S(=O)(=O)NCc2cccc(OC)c2)n1C	-4	x	-1	-2	-18	-13	x	0
COc1ccc(S(=O)(=O)N2CCC(C(=O)N3CCc4ccccc4C3)CC2)cc1C	8	i	0	-3	-7	0	40	-2
CCOc1ccc2[nH]c(=O)c(CN(CCOC)C(=O)N3CCOCC3)cc2c1	-2	i	0	3	-43	-6	-77	-2
Nc1nnc(SCC(=O)c2ccc3ccccc3c2)s1	-7	i	x	x	x	-9	x	38
O=C(CCNC(=O)C1CCN(S(=O)(=O)c2ccccc2)CC1)NC1CC1	x	i	6	6	8	-6	5	x
O=C(N/C(=C/c1ccccc1)C(=O)N1CCCCC1)c1ccc(Br)o1	6	i	0	0	-3	1	-4	-1
N#C/C(=N\Nc1ccc(F)cc1)C(=N)N1CCCCCC1	-16	i	1	-4	-17	-2	-82	6
Cc1[nH]c(=O)[nH]c(=O)c1S(=O)(=O)Nc1ccc(F)c(Cl)c1	-2	i	3	2	-5	-3	-50	-3
NCC12CC3CC(CC(O)(C3)C1)C2	-2	i	3	2	9	-14	x	-10
O=C(CC(c1ccccc1O)N1CCCCC1)N1CCCCC1 (stereo not drawn)	-4	i	-2	-1	x	-8	-98	-11

Entries listed so far containing bromine (three):
SMILES	PABP polyA inh	Rce1 inhib	MT1-MMP act inh	MT1-MMP act inh RFP	Yeast UUG start	CSC inhib	HIV Env fusion	eIF4H inh	others
CN(C)CCCNC(=O)C1(O)c2cc(Br)ccc2NC(=O)N1c1ccc(Cl)cc1 (stereo not drawn)	-1	i	2	1	4	-9	3	-1
Cc1[nH][nH]c(=O)c1N=Nc1ccc(Br)c(Cl)c1	x	x	11	0	1	11	-8	x
O=C(N/C(=C/c1ccccc1)C(=O)N1CCCCC1)c1ccc(Br)o1	6	i	0	0	-3	1	-4	-1

Other structures follow:
SMILES	PABP polyA inh	Rce1 inhib	MT1-MMP act inh	MT1-MMP act inh RFP	Yeast UUG start	CSC inhib	HIV Env fusion	eIF4H inh	others
O=C(Oc1ccc2c(c1)OCO2)c1ccc(Br)c(S(=O)(=O)N2CCOCC2)c1	6	x	5	-2	4	-5	4	3
O=C1NC(=Nc2ccccc2)S/C1=C/c1cccnc1	-14	i	-5	-1	-20	-14	-12	-1
Cc1cc(NC(=O)c2cc(-c3ccccc3)on2)n(-c2ccccc2)n1	0	i	1	-1	-14	-18	2	7
COc1ccc(-c2cc3nc(-c4ccccc4)cc(N4CCN(C(=O)c5ccsc5)CC4)n3n2)cc1	x	x	-6	-12	-2	x	-4	x
O=CN1CCN(C(=S)Nc2ccc(OC(F)F)cc2)CC1	2	i	-5	-3	-28	-20	13	1
O=C(Cc1ccc(Br)cc1)NC1CCN(Cc2ccccc2)CC1	8	i	3	-2	-2	-2	3	-7
CC(C(=O)OCC(=O)c1ccc([N+](=O)[O-])cc1)N1C(=O)C2C3CCC(C3)C2C1=O (stereo not drawn)	9	i	-10	-5	x	-3	-4	15
COc1cc(O)c(CCC(=O)c2cc(OC)c(OC)c(OC)c2)c(OC)c1	15	i	9	2	x	-6	4	-8
CCn1nnc(NC(=O)COc2ccc(C3CCCCC3)cc2)n1	-5	i	-1	-15	10	15	x	-8
CC(NC(=O)Cc1cccs1)C(c1cccs1)N1CCOCC1 (stereo not drawn)	3	i	1	3	1	-6	x	-6
CC1CCN(CC(=O)Nc2ccccc2C(=O)c2ccccc2)CC1	-9	i	-2	-3	x	2	13	-3
COc1ccccc1Nc1nc(N)nc(CN2CCN(Cc3ccc4c(c3)OCO4)CC2)n1	1	i	0	-1	-11	-5	-1	-10
CCN1c2ccccc2-c2nc3ccccc3n2C1c1cccs1 (stereo not drawn)	0	i	4	-8	x	8	4	4
COc1ccccc1NC(=O)CN1CCSc2ccccc21	-4	i	-1	2	x	1	1	-1
O=C(O)CCCN1C(=O)C(=O)/C(=C(/O)c2ccccc2)C1/C=C/c1ccccc1 (stereo not drawn)	8	i	3	8	x	-9	8	-1
O=C(/C=C\c1ccccc1)Nc1ccc(NC(=O)c2ccco2)cc1	u	i	5	2	-17	31	5	-8
O=C(c1cc(F)ccc1F)N1CCC(N2CCC(C(=O)N3CCCC3)CC2)CC1	9	i	-2	1	21	-9	-2	34

From PubChem BioAssay

Not all compounds are listed. The share of hits here may be higher or lower than overall.
